HCMV UL50-53 inh: disrupts HCMV UL50-UL53 complex binding; AID 1918969; HTRF UL50-UL53 interaction, normalized percent inhibition; hit rate 0.15% among 190,000; inhibition, % (no concentration beside the values);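 active = both replicates at 50% or more, plus weaker picks with an unusually low signal ratio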;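 also: stock transfer was 100 nL into about 20 µL; 0% = negative control wells and 100% = wells with untagged competitor protein; inactives centre near -12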
Sa growth inh: S. aureus growth inhibition; AID 720641; hit rate 0.53% among 170,000; relative growth, % (concentration not given with the values); S. aureus RN4220 growth, OD600, 20 h, 42 °C; hits give low values;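 active = growth at 42 °C up to 50% and 20 or more points under that at 30 °C, or under 10% at both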;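 also: 300 nL library stock went into each well; scaled to the means of positive and negative controls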
GIV-Gai inh: blocks GIV peptide binding to rat Galpha-i3; P08753; Galpha-i3/FITC-GIV peptide fluorescence polarization, 90 min; hits give low values; scaled: aluminum fluoride 0%, vehicle 100%; percent of control (FP), % (test concentration not listed); hit rate 0.42% among 210,000;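 active = replicate mean at 85% of control or lower, very high polarization wells dropped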;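 also: wells of about 15 µL received 100 nL stock; the first replicate is given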
Target sequence (P08753 whole entry, looked up): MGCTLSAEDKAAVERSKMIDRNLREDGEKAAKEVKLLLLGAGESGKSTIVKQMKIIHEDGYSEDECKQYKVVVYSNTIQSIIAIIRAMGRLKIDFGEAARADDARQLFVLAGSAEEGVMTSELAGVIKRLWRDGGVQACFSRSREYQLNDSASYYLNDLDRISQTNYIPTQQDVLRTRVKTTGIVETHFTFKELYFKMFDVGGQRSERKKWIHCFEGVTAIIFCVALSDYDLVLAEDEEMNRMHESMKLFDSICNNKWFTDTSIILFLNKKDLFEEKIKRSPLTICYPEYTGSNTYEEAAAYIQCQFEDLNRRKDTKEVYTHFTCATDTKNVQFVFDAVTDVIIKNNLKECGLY
Sa growth inh second temp: recorded beside Sa growth inh, whose call it bears; relative growth, %; measured here: growth at 30 °C;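 optical density after 20 h as mean of two plates; 100% = untreated growth and lower means inhibition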
* hit, by the source's call; x = no result given; & = joins results of further samples.

SMILES	HCMV UL50-53 inh	Sa growth inh	Sa growth inh second temp	GIV-Gai inh
CCc1ccc(-c2ccc3nnc(SCC(=O)Nc4cccc(C(C)=O)c4)n3n2)cc1	x	113	94	94
CCc1ccc(NC(=O)Cn2nc(-n3cccc3)c3c(C)cc(C)nc32)cc1	-30	101	90	106
O=C(CCCc1nnc2c(=O)n(-c3ccc(Cl)cc3)ccn12)NCCN1CCCC1	-27	93	91	107
COc1ccc(-c2nc(N)s[n+]2-c2ccccc2)cc1	12	82	96	x
O=c1c2ccccc2nc(-c2ccccc2)n1OCc1ccc(Br)cc1	6	116	94	105
Cc1cccn2c(=O)c(/C=C3\SC(=S)N(C(C)c4ccccc4)C3=O)c(N3CCCC3)nc12 (stereo not given)	-24	x	x	104
O=C1CSc2ccccc2N1	-13	76	90	x
O=C(CCCc1ccccc1)Nc1ccccc1C(=O)O	-7	119	80	109
CCOc1ccccc1NC(=O)Cn1c(=O)oc2cc(S(=O)(=O)NCc3ccccc3)ccc21	x	105	88	100
c1ccc(Nc2cc(-c3ccccc3)nc3nc(-c4cccnc4)nn23)cc1	-12	x	x	104
CC(=O)n1c(=S)[nH]c2ccccc21	-8	97	104	96
OC1CCNCC1	-2	76	88	x
NS(=O)(=O)c1ccc2nc(NC(=O)c3ccc(S(=O)(=O)N4CCc5ccccc5C4)cc3)sc2c1	-21	x	x	109
COc1ccccc1-c1csc(-c2c(N)c(C(=O)c3ccc(Cl)cc3)n3ccccc23)n1	25	x	x	104
COc1ccc(-c2cc(C(=O)Nc3cccc(O)c3)on2)cc1OC	x	127	106	113
Cc1ccnc(NS(=O)(=O)c2ccc(C3CCCCC3)cc2)c1	-1	84	95	105
O=c1c(-c2cc(-c3ccc(F)cc3)nc3c2COc2ccc(Cl)cc2-3)coc2ccc(F)cc12	-16	100	89	106
Cn1c2c(c(=O)n(C)c1=O)CN(Cc1ccc3c(c1)OCO3)CN2	-5	x	x	106
CCN(CC)S(=O)(=O)c1ccc2[nH]cc(C(=O)NCCc3ccccc3)c(=O)c2c1	x	109	91	107
COC(=O)C1=C(C)N(Cc2cccnc2)C(=O)/C1=C\c1cccc(Cl)c1	5	91	72	107
Cc1nn(-c2ccccc2)c(C)c1/C=C(\C#N)S(=O)(=O)c1ccccc1	-10	108	91	105
CC(=O)N1N=C(c2c(O)n(C)c(=S)n(C)c2=O)CC1c1ccc(Cl)cc1 (stereo not given)	-18	x	x	103
CC(C)(C)C1=NN(C(=O)c2cccc(S(=O)(=O)N3CCOCC3)c2)C(=O)C1	-20	108	85	x
CC1(C)NC(=O)N(c2ccccc2)N1	-43	85	77	103
Cc1ccc(C)c(N2CCN(c3nc4ccc(Cl)cc4n4cnnc34)CC2)c1	-6	103	92	98
O=C(CSc1ccc(Cl)cc1)c1cc2ccccc2o1	-42	77	90	x
Cn1nc(C(=O)Nc2sc3c(c2C(N)=O)CCC3)ccc1=O	-35	70	88	x
CC(C)(C)OC(=O)NCCN1CCNCC1	15	94	85	102
O=C(O)C1CC1(C(=O)O)C(=O)O (stereo not given)	5	109	107	102
CCN(C(=O)C12CC3CC(CC(C3)C1)C2)C1CCS(=O)(=O)C1 (stereo not given)	-8	116	96	103
COc1ccc(OC)c(CCNC(=O)CCn2c(=O)c3cccn3c3cccnc32)c1	x	106	78	106
CNc1c(NC(=O)Nc2ccc(F)cc2)c(=O)oc2ccccc12	-8	111	84	111
Cc1nc2c(c(C)nn2C(C)(C)C)c(C)c1CCC(=O)Nc1ccc(Br)cc1Br	-38	102	86	101
Cc1nc2cccnc2n1-c1cc(C(=O)NCCCN2CCN(C3CCCCC3)CC2)ccc1Cl	-6	x	x	105
CCOC(=O)Cn1c(=O)cc(C)c2ccccc21	-8	x	x	102
CN(C(=O)c1cccs1)C1CCS(=O)(=O)C1 (stereo not given)	-11	89	94	x
CC(=O)N1c2ccc(S(=O)(=O)Nc3ccc(CN4CCCCC4)cc3)cc2CC1C (stereo not given)	-21	101	83	98
O=C1NC(=Nc2ccccc2)S/C1=C/c1cccc(C(F)(F)F)c1	-14	x	x	102
O=C(Nc1ccc(OCc2cc(=O)n3c4c(sc3n2)CCCC4)cc1)c1ccc(F)cc1	0	104	89	114
CC(C)(C)NC(=S)NN1C2CSC1CS2	-30	86	71	104
O=c1cc(Nc2cccc(C(F)(F)F)c2)nc[nH]1	-10	109	81	102
Cc1cccc(N2CCN(C(c3ccc(F)cc3)c3nnc(-c4ccccc4)o3)CC2)c1C (stereo not given)	-9	88	89	103
CCOC(=O)CN1CC23C=CC(O2)C(C(=O)NCc2ccc(F)cc2)C3C1=O (stereo not given)	-22	84	87	102
O=C(NCCc1csc(-c2ccc(F)cc2)n1)C1CCCC1	4	x	x	105
Cc1cc(C)nc(SCC(=O)c2c[nH]c3ccccc23)n1	-18	89	84	99
S=c1[nH]ccn2nc(-c3ccccc3)cc12	-24	x	x	108
CCCCn1c(SCC(=O)Nc2ccccc2C(F)(F)F)nc2ccsc2c1=O	x	119	93	100
COC(=O)c1ccc(NC(=O)C2CC(=O)N(Cc3ccccc3)C(=Nc3ccc(OC)cc3)S2)cc1 (stereo not given)	-8	x	x	100
Clc1ccccc1-c1nc2ccccc2s1	-5	107	90	106
CCN(CC)S(=O)(=O)c1ccc2c(c1)N(CC(=O)Nc1ccc(Cl)cc1)C(=O)C1CCCN21 (stereo not given)	-7	87	85	207

New compounds follow:
SMILES	HCMV UL50-53 inh	Sa growth inh	Sa growth inh second temp	GIV-Gai inh
CCN(c1ccc(OC)cc1)S(=O)(=O)c1ccc2[nH]c3c(c2c1)CCCCC3	x	111	77	100
COC(=O)c1sc(NC(=O)c2cc3c(s2)CCCC3)nc1C	9	106	109	112
c1ccc(-c2nnc(COc3ncnc4c3cnn4-c3ccccc3)o2)cc1	-26	85	94	x
O=C(c1cc(-c2ccncc2)n(-c2ccccc2)n1)N1CCN(c2ccccc2)CC1	-22	x	x	105
Cc1cc(C(=O)NN=C2CCCCC2)c2ccccc2n1	19	103	99	103
CCc1ccccc1NC(=O)Cc1c(C(=O)O)[nH]c2ccc(Cl)cc12	0	106	94	103
NC(=O)c1cc(S(=O)(=O)N(CCc2ccncc2)CC2CCCO2)cs1 (stereo not given)	-26	80	81	98
CC(=O)N1CCCSc2ccc(S(=O)(=O)NCCCN3CCCC3=O)cc21	-4	x	x	101
CCCOc1ccc(Nc2cc(C)nc(C)n2)cc1	-21	95	75	101
COc1cccc(C2=NN(C(=O)c3ccccc3Cl)C(c3ccco3)C2)c1 (stereo not given)	-2	133	103	x

An excerpt from the list above, for reference:
SMILES	HCMV UL50-53 inh	Sa growth inh	Sa growth inh second temp	GIV-Gai inh
COC(=O)c1ccc(NC(=O)C2CC(=O)N(Cc3ccccc3)C(=Nc3ccc(OC)cc3)S2)cc1 (stereo not given)	-8	x	x	100
Clc1ccccc1-c1nc2ccccc2s1	-5	107	90	106
CCN(CC)S(=O)(=O)c1ccc2c(c1)N(CC(=O)Nc1ccc(Cl)cc1)C(=O)C1CCCN21 (stereo not given)	-7	87	85	207
CCN(c1ccc(OC)cc1)S(=O)(=O)c1ccc2[nH]c3c(c2c1)CCCCC3	x	111	77	100
COC(=O)c1sc(NC(=O)c2cc3c(s2)CCCC3)nc1C	9	106	109	112
c1ccc(-c2nnc(COc3ncnc4c3cnn4-c3ccccc3)o2)cc1	-26	85	94	x
O=C(c1cc(-c2ccncc2)n(-c2ccccc2)n1)N1CCN(c2ccccc2)CC1	-22	x	x	105
Cc1cc(C(=O)NN=C2CCCCC2)c2ccccc2n1	19	103	99	103
CCc1ccccc1NC(=O)Cc1c(C(=O)O)[nH]c2ccc(Cl)cc12	0	106	94	103
NC(=O)c1cc(S(=O)(=O)N(CCc2ccncc2)CC2CCCO2)cs1 (stereo not given)	-26	80	81	98
CC(=O)N1CCCSc2ccc(S(=O)(=O)NCCCN3CCCC3=O)cc21	-4	x	x	101
CCCOc1ccc(Nc2cc(C)nc(C)n2)cc1	-21	95	75	101
COc1cccc(C2=NN(C(=O)c3ccccc3Cl)C(c3ccco3)C2)c1 (stereo not given)	-2	133	103	x

Additional compounds:
SMILES	HCMV UL50-53 inh	Sa growth inh	Sa growth inh second temp	GIV-Gai inh
Cn1c(/C(C#N)=C(\O)Cc2ccccc2)nc2ccccc21	-11	101	88	104
COC(=O)Cc1nc(NC(=O)c2nc(-c3ccccc3)oc2C)sc1C	-40	93	85	102
COc1ccc(-c2cc(C(F)(F)F)nc(SCCC(=O)Nc3cc(C)on3)n2)cc1	-12	79	90	99
COC(=O)c1ccc(N=Cc2ccc(Br)s2)cc1	-12	87	87	x
O=C1NCCCCC1NS(=O)(=O)c1cccc2ccccc12 (stereo not given)	-16	94	91	98
CN(CC(=O)N1CCc2ccccc2C1)c1ccccc1	-3	92	85	x
N#C/C(=C/c1ccc(C(=O)O)cc1)C(=O)Nc1ccccc1	-8	101	101	97
CCCC(C)NC(=O)N1CCOCC1 (stereo not given)	-5	111	86	x
CCc1nn(-c2ccccc2)c2nc(-c3ccccc3)nc(SCC(=O)Nc3ccc4c(c3)OCCO4)c12	0	x	x	103
O=C(/C(=N/O)n1cncn1)c1ccc(Cl)cc1Cl	-51	97	83	102
O=C(CSc1nccn1-c1cccc(Cl)c1)Nc1ccccc1	6	93	79	108
COc1ccc(N(Cc2cccs2)C(=O)c2ccc(OC)c(Cl)c2)cc1	-3	96	64	102
CCNC(=S)N1CCN(C(=O)c2ccco2)CC1	-13	109	104	108
O=C1C2C3C=CC(CC3)C2C(=O)N1c1ccc2c(c1)OCO2 (stereo not given)	-13	x	x	99
O=C(Nc1ccc(N2CCCCC2)cc1)c1ccc(F)cc1	4	104	100	102
N#Cc1c(N2CCOCC2)sc(C(=O)O)c1-c1ccc(Cl)cc1	-30	100	91	97
O=C(O)C1C2C=CC(O2)C1C(=O)Nc1cccc(C(F)(F)F)c1 (stereo not given)	-9	92	90	x
COc1ccc(-c2cc(C(=O)Nc3cccnc3Cl)no2)cc1OC	10	90	103	111
CC(=O)Nc1ccc(OCc2nnc(C)o2)cc1	-25	67	95	x
O=C(c1ccccc1F)N1CCNCC1	-5	82	94	x
Cn1ccnc1S/C=C/C(=O)c1ccc(Cl)cc1	-12	94	86	97
CCOc1ccc(-c2cc3nc(C4CCN(C(=O)OC(C)(C)C)CC4)c(C(=O)Nc4ccc(C)cc4Cl)cn3n2)cc1	1	100	78	115
COc1ccccc1-c1nc(SCC(=O)c2ccccc2)n[nH]1	-11	102	91	108
O=C(NCc1ccc2c(c1)OCO2)c1ccncc1	-6	95	94	x
Cc1ccc(OCc2cc(=O)n3oc(C)cc3n2)c(NC(=O)COc2cc(C)ccc2C)c1	-1	x	x	95
Clc1ccc2c(c1)c1cc(Cl)ccc1n2CN1CCCCC1	-42	72	77	98
CC/C(C)=N/Oc1nc(NC(=O)NS(=O)(=O)c2ccccc2Cl)nc(N(C)C)n1	1	101	90	101
Cc1nc(-c2ccc(C)c(S(=O)(=O)N3CCC(C(=O)Nc4ccc(Cl)cc4)CC3)c2)no1	x	140	81	104
Cc1ccc(-c2noc(CCC(=O)NC(C)(C)C)n2)c(=O)n1C(C)C	-23	x	x	103
COc1ccc2oc(=O)cc(-c3cc4ccccc4o3)c2c1	-29	106	90	104
CCCCCCCC(=O)N1c2ccccc2C(N(C(=O)c2ccc([N+](=O)[O-])cc2)c2ccccc2)CC1C (stereo not given)	7	x	x	109
CNCCc1ccccn1	-35&-4&-20	83	82	x
CSc1ncc(C)cc1C#N	0	110	99	102
CCOc1ccc(-c2cc3nc(C4CCN(C(=O)OC(C)(C)C)CC4)c(C(=O)Nc4ccc(C(=O)OC)cc4)cn3n2)cc1	-6	85	101	107
COc1cccc(NC(=O)c2ccnc(N3CCC(C(=O)NC4CCCCC4)CC3)c2)c1	0	x	x	103
O=S(=O)(NCc1ccc2c(c1)OCO2)c1ccc(I)cc1	0	107	97	104
Cc1cccc(NC(=O)CSc2cn(CCNC(=O)c3ccc(F)cc3)c3ccccc23)c1C	x	111	94	100
O=C(O)C1C2C=CC(C2)C1C(=O)Nc1cc(Cl)cc(Cl)c1 (stereo not given)	1	129	109	100
COc1ccccc1NC(=O)C1CC(=O)N(Cc2ccc3c(c2)OCO3)C(=Nc2ccccc2)S1 (stereo not given)	14	x	x	106
CCOc1ccc(CCNC(=O)C2CC(=O)N(CCc3ccc(OC)c(OC)c3)C2)cc1OCC (stereo not given)	x	125	88	101
CCC(=O)N1CCCC1c1nc2ccccc2n1C (stereo not given)	-20	x	x	106
C=CCN1CC(c2nc3ccccc3n2Cc2ccc(F)cc2)CC1=O (stereo not given)	x	109	83	102
CN(C)c1ccc(C(CNC(=O)c2ccc(Br)cc2)N2CCCC2)cc1 (stereo not given)	-24	x	x	101
COC(=O)c1ccccc1NC(=O)c1ccc(-c2nc(CSc3ccccc3)c(C)o2)cc1	-14	x	x	106
CCOc1ccc(/C=C/c2nc(C#N)c(N3CCCCC3)o2)cc1	-14	103	70	99
CCN1C(=O)C(C(c2ccncc2)c2c(O)n(CC)c(=S)n(CC)c2=O)C(=O)N(CC)C1=S (stereo not given)	-4	117	61	102
CCCCc1ccc(Nc2ncnc3c2cnn3-c2ccccc2)cc1	x	112	88	101
Cc1oc2ncnc(N3CCCC(C(=O)Nc4cccc(Cl)c4)C3)c2c1C (stereo not given)	-29	x	x	100

Bioassay records (PubChem)
